gsp agonist: gsp mutant agonism; Potency, µM (highest dose often 76.9 µM), for inactives: at the highest dose activation (cAMP increase), usual class: activators; 0.13% of 340,000 active; gsp mutant cells, cAMP HTRF, 30 min; control for the full effect not named in the record; active = well fitted activation curve with a large enough effect; inconclusive = small, poorly fitted or top-dose-only effect, or another doubt; inactive = no such curve, though single readings can be large or run the other way; cell line not stated here;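 further: phosphodiesterase inhibitor Ro 20-1724 added with compounds to block cAMP breakdown; potency means the concentration at half of the fitted maximal effect; nearly all actives have a fitted effect of over 60% in size; about a fifth of the inactives were tested at one dose only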
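Cells stably selected in G418 were plated at 2000/well, grown 16-24 hr, then given compounds in DMSO with the PDE inhibitor […] (300 uM solution added) for 30 min at 37C; cAMP was read by HTRF.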
gsp antagonist: antagonizes gsp, the McCune-Albright syndrome mutation; Potency, µM (highest dose often 76.9 µM), for inactives: at the top dose activity change, negative = inhibition, actives largely listed as inhibitors; AID 624288; gsp-mutant cells, cAMP HTRF, 30 min; control for the full effect not named in the record; 0.4% of 340,000 active; active = falling curve of any shape with a large fitted effect; inconclusive = falling curve, mostly with a smaller effect; inactive = flat or rising curve; cell line not stated here;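 further: intracellular cAMP measured with PDE inhibitor Ro 20-1724 present during compound exposure; potency means the concentration at half of the fitted maximal effect; on the % scale 0 is the no-effect control and ±100 the full control effect; nearly all actives have a fitted effect of over 65% in size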
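Cells in G418 medium, seeded 16-24 h, 37C; buffer exchange to DPBS + 1 mM CaCl2, 0.5 mM MgCl2, 0.05% BSA; cpds in DMSO + […] (300 uM stock), 30 min 37C; HTRF cAMP detection.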
TRPML1 blocker: blocks the human TRPML1 channel | TRPML1-inducible cells, Ca2+ dye fluorescence, FDSS; stronger effect = lower value; inhibition of EC80 agonist-evoked calcium signal | activity change, negative = inhibition, % (no concentration beside the values) | Q9GZU1 | 0.02% of 390,000 active; in the data active means activity change below about -50%; inconclusive means about -30% to -50%; inactive means above about -30%;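 further: stimulus is agonist 54-4 at its EC80 concentration; on the % scale 0 is the no-effect control and ±100 the full control effect; compound concentration not given in the record; the text of the record puts the active cut at -80%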
Target sequence (Q9GZU1 whole entry, looked up): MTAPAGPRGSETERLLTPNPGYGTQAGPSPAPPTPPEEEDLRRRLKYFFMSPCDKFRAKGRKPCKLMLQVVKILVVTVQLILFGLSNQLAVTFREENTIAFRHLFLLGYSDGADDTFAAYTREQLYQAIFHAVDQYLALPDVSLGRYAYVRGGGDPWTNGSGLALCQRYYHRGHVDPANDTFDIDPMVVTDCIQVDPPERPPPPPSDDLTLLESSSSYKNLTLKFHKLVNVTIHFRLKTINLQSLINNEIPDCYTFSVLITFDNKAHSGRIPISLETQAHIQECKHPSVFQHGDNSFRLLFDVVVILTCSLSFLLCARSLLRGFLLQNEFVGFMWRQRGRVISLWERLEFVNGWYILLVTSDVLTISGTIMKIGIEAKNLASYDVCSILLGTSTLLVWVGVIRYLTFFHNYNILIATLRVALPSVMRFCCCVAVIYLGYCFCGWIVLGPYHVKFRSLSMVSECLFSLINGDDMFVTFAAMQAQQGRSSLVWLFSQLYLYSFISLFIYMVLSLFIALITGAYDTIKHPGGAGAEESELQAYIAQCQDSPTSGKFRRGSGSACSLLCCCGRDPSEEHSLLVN
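TRPML1-DL cells, Tet-induced overnight (~16 h, 37 °C) at 1,500 cells/well, were loaded with Ca8 no-wash dye plus quencher for 45-90 min at room temperature. Compounds were pinned during FDSS kinetic reading; agonist 54-4 at EC80 (4 uM final) then added.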
ClpP mod: qHTS Assay for Activators of ClpP; AID 651965, 2013; 1.9% of 340,000 active; Potency, µM (highest dose often 57.5 µM), inactives show at the highest dose activity change, negative = active; purified B. subtilis ClpP, FRET peptide cleavage, 20 min; ATP-dependent Clp protease proteolytic subunit (Bacillus subtilis (strain 168)), P80244; active = well fitted falling curve with a large enough effect; inconclusive = small, poorly fitted or top-dose-only effect; inactive = no such curve, though single readings can be large or run the other way; further: potency means the concentration at half of the fitted maximal effect; the source files actives as falling curves though it sought activators and does not explain the sign; nearly all actives have a fitted effect of over 65% in size; many hits overshoot -100%
Target sequence (P80244 whole entry, looked up): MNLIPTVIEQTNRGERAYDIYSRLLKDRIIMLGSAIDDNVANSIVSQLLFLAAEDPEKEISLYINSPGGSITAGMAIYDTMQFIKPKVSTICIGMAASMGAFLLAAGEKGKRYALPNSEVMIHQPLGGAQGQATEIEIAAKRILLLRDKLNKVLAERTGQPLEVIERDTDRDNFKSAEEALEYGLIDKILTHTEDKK
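Buffer: 100 mM Tris/HCl pH8, 100 mM KCl, 0.05% low protease BSA, 2.5% glycerol, 0.01% Tween-20. ClpP 10 microg/mL final; 20 min RT; delta FRET normalized to ADEP and DMSO controls.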
TRPML1 agonist: activates the human TRPML1 channel. Q9GZU1. TRPML1-expressing cells, Ca2+ dye fluorescence, FDSS; host cell line not named in the record; reference of the full effect not given here. activation, % (no concentration beside the values). 0.12% of 410,000 active. AID 624414; in the data active = activation above about 50%; inconclusive = about 30% to 50%; inactive = below about 30%; further: 0% is about no effect; the text of the record puts the active cut at 80%
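Tetracycline-induced TRPML1-DL cells are seeded and incubated overnight before loading with a no-wash Ca2+ dye and quencher. Agonist activity is taken from the 110 s fluorescence read following compound pin-transfer on an FDSS, before EC80 54-4 challenge.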
Menin MLL FP FL: menin-MLL binding inhibition, fluorescein peptide. Fluorescence polarization, fluorescein-MLL peptide displacement from menin. 290,000 tested, under 10 active. FP activity change, % at 61.4 µM. AID 1766; inconclusive = falling polarisation curve, or a change in total fluorescence; inactive = total fluorescence flat and polarisation flat or rising; no compound was filed as active; the % refers to the polarisation; negative = inhibition;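 further: % of control where 0% means no effect; inhibitors lower the polarisation; unlabelled MLL peptide was the positive control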
An asterisk follows results filed as active; u = inconclusive; x = no result given; & = joins results of further samples; [ ] = remark or other dose.

Values in the order: gsp agonist	gsp antagonist	TRPML1 blocker	ClpP mod	TRPML1 agonist	Menin MLL FP FL
> c1ccc(-n2ncc3c(N4CCC5(CC4)OCCO5)ncnc32)cc1
  -4%	-4%	11	-8.4%	-0.1	2.7
> CS(=O)(=O)N1CC(C(=O)NC2CC2)Oc2ccc(Cl)cc21 (stereo unspecified)
  20%	6%	28	-1.3%	-0.3	4.9
> COc1ccc(-c2cc(-c3ccccc3)nc(N3CCCC3)n2)cc1OC
  u	-15%	35	25µM*	3.4	-0.4
> Cc1ccccc1C(=O)N1CCCC(CCC(=O)N2CCN(c3ccccn3)CC2)C1 (stereo unspecified)
  -24%	2%	-5	x	0.4	-0.7
> CS(=O)(=O)N(Cc1ccc(Cl)cc1)c1ccc(C(=O)N2CCN(c3ccccc3)CC2)cc1
  -42%[inhibitor]	-9%	1	-6.6%	-0.1	2.2
> O=C1NC(=Nc2cccnc2)S/C1=C/c1ccc(F)cc1
  2%[15.4 µM]	5%	16	x	1.2	36[activator]
> O=C(Cc1ccc([N+](=O)[O-])cc1)N1N=C(c2ccncc2)CC1(O)C(F)(F)F (stereo unspecified)
  -15%	3%	17	-0.5%	1.8	-4.9
> COc1ccc(OCC(=O)NCCCN2CCOCC2)cc1
  4%	5%	-1	-3.4%	1.0	1.5
> CCOc1ccc(CNS(=O)(=O)c2ccc3c(c2)CC(C)N3C(C)=O)cc1OC (stereo unspecified)
  x	x	-2	1.7%	2.4	x
> O=C(NC(=S)Nn1cnc2c(cnn2-c2ccccc2)c1=O)c1ccccc1
  -3%[15.4 µM]	3%	17	-1.9%	0.5	-1.1
> COc1ccc(CSc2ccc(S(=O)(=O)N3CCCCC3)cn2)cc1F
  12%	18%	-15	-5.5%	2.2	x
> CCCC(=O)N(Cc1cc(=O)[nH]c2ccccc12)c1cccc(C)c1
  8%[15.4 µM]	-3%	3	-2.2%	-1.3	-0.1
> O=S(=O)(NCc1ccco1)c1ccc(Cl)s1
  -10%	5%	4	x	0.2	x
> COCCCNC(=S)N/N=C/c1ccc(OC)c(Br)c1
  -4%[15.4 µM]	0%	18	x	3.0	1.7
> CCNC(=O)c1ccc2c(c1)nc1n2CCCCC1
  x	x	7	0.7%	-0.2	x
> COC(=O)C1C(=O)C=C(N2CCOCC2)CC1(C)C (stereo unspecified)
  8%	-2%	-22	13µM*	-0.5	0.2
> O=C(NCCc1ccccc1)C1CCCN1C(=O)NCc1ccccc1 (stereo unspecified)
  -20%	3%	8	0.6%	-0.1	4.0
> CCN(CC)S(=O)(=O)c1ccc2c(c1)nc(CCC(=O)Nc1ccccc1Cc1ccccc1)n2CC
  4%	-4%	-3	-2.3%	3.3	6.3
> O=C(NCc1ccccc1)C1=C[C@H](c2ccc3c(c2)OCO3)C[C@H](OCCCCO)O1
  x	-10%	-10	-4.8%	-0.9	-2.9
> COc1ccc(CCN2CC(C(=O)Nc3cc(S(C)(=O)=O)ccc3Cl)CC2=O)cc1OC (stereo unspecified)
  -46%[inhibitor]	2%	10	-1.0%	-0.9	x

Next section
Values in the order: gsp agonist	gsp antagonist	TRPML1 blocker	ClpP mod	TRPML1 agonist	Menin MLL FP FL
> COc1ccc(CCNC(=O)CSc2nn3c(=O)c(C)nnc3s2)cc1OC
  12%	4%	-3	-0.8%	0.4	1.9
> Cc1ccccc1NC(=O)/C(C#N)=C/c1ccc(Cl)cc1Cl
  x	x	-6	-2.0%	-0.3	x
> Cc1cc(NC(=O)CN2C(=O)c3ccccc3C2=O)no1
  20%[15.4 µM]	-7%	u	-0.9%	-0.8	2.4
> Cc1cc(C)c2nc(-c3cccc(Cl)c3)c(C)c(C(=O)N3CCOCC3)c2c1
  u	-17%	-5	-6.8%	-0.4	x
> CC(C)CCN1CCN(Cc2ccc(Oc3ncccn3)cc2)CC1CCO (stereo unspecified)
  -17%[15.4 µM]	14%	6	x	-0.3	-3.2
> CC(=O)Nc1nn(C)c2nc(C)cc(C)c12
  -1%[15.4 µM]	9%	-2	0.9%	-0.4	0.1
> O=[N+]([O-])c1ccc(N2CCSCC2)cc1
  21%	4%	20	x	-0.3	-0.5
> CCOC(=O)c1cccc(NC(=O)NC(C)c2c(-n3cccc3)sc3c2CCN(C)C3)c1 (stereo unspecified)
  x	x	-10	2.7%	2.0	x
> CCOc1cc(N2CCOCC2)c(OCC)cc1NC(=O)CN1CCSC1=O
  7%	-8%	-15	-0.4%	0.1	x
> O=C(NN=C1CCCC1)c1[nH]c2ccc(Br)cc2c1-c1ccccc1
  u	19%	-7	x	0.1	5.8
> COc1cc(/C=N/Nc2ccccn2)cc(OC)c1O
  -40%[15.4 µM]	-3%	u	x	-0.7	-1.8
> O=C(NC1CCCC1)C(c1ccc(Cl)cc1)N(Cc1ccc(F)cc1)C(=O)CCl (stereo unspecified)
  -35%[inhibitor]	15%	0	1.2%	-0.5	-0.2
> COc1ccc(CNC(=O)c2cc(=O)c3cc(C)cc(C)c3o2)cc1
  -69%[inhibitor]	5%	-10	-1.5%	0.8	0.9
> CCOc1ccc(S(=O)(=O)N(C)C2CCCCC2)cc1
  12%	2%	21	-1.0%	0.6	2.8
> CCCN(CC1CC1)c1nc(N)c(C#N)c(CC#N)c1C#N
  -17%	12%	12	-8.9%	2.9	9.1
> COc1cc(/C=C(\C#N)C(=O)Nc2cc(C(F)(F)F)ccc2Cl)ccc1OCC(=O)Nc1cccc(C(F)(F)F)c1
  0%	-5%	6	-20%	1.5	17
> Cc1onc(-c2ccccc2)c1C(=O)Nc1cccc(C#N)c1
  -44%[inhibitor]	-3%	3	1.4%	-0.3	8.8
> COc1ccc(-c2c(C(F)(F)F)nn(C)c2NC(=O)CSCC(=O)O)cc1
  15%[15.4 µM]	-3%	34	0.6%	-0.8	0.4
> O=[S@]1Oc2ccccc2-c2ccccc21
  5%[15.4 µM]	-11%	1	0.6%	4.6	x
> Cc1cccc(-c2oc3ccc(-c4ccc5c(c4)OCO5)cc3c2C#Cc2cncn2C)c1
  x	-25%	-10	55%	-0.6	x

New compounds follow
Values in the order: gsp agonist	gsp antagonist	TRPML1 blocker	ClpP mod	TRPML1 agonist	Menin MLL FP FL
> O=C(Nc1cccc(C(F)(F)F)c1)C1C2CC3OC(=O)C1C3C2 (stereo unspecified)
  u	15%	9	1.2%	0.4	3.5
> CCCCN(CC)CCNC(=O)C1CCN(c2nnc(C)c3c(C)n(-c4ccc(C)cc4)nc23)CC1
  x	x	-4	-22%	-0.5	x
> COc1ccc(-c2nnc(SCC(=O)NC3CCCCC3)n2N)cc1
  -12%[15.4 µM]	5%	9	x	0.6	x
> CCNS(=O)(=O)c1ccc(NC(=O)c2ccccc2SCCOC)cc1
  22%	3%	-27	x	1.5	1.8
> NS(=O)(=O)c1cccc(NC(=O)c2cccnc2Oc2ccccc2)c1
  0%[15.4 µM]	4%	-9	x	-1.0	-0.2
> Cc1ccc(C(=O)C2COC(=O)C2)cc1 (stereo unspecified)
  3%	-1%	-11	0.2%	3.0	5.6
> CC(C)CSCC1OC(n2cnc3c(N)nccc32)C(O)C1O (stereo unspecified)
  3%	x	12	1.4%	-0.3	x
> O=C(CSc1oc(-c2ccco2)nc1S(=O)(=O)c1ccc(Br)cc1)c1ccccc1
  x	x	43	-3.5%	2.1	x
> CCCc1nnc(SCC(=O)O)n1/N=C/c1ccc2c(c1)OCO2
  3%	3%	35	-7.9%	0.1	1.1
> COc1cc(C(=O)NCc2ccc3c(c2)OCO3)ccc1OCc1c(C)noc1C
  0%	-3%	8	-1.7%	-0.9	3.6
> CC1CCC(N2CC(=O)N(Cc3ccc4c(c3)OCO4)C(c3ccc(F)cc3)C2=O)CC1 (stereo unspecified)
  -19%	-9%	13	-1.0%	0.2	-2.8
> CC(C)(C)C(=O)Nc1nc2nc(-c3ccccc3)cc(=O)n2[nH]1
  x	x	-25	-7.1%	0.3	x
> O=C(COC(=O)c1ccc(Cl)nc1)Nc1ccc(N2CCCCC2)cc1
  -13%[15.4 µM]	5%	-2	-0.7%	-0.6	x
> Cc1cc(O)c2c(CN3CCN(Cc4ccccc4)CC3)cc(=O)oc2c1
  -1%	-3%	13	0.8%	-0.5	-1.8
> CCOc1ccccc1OCCOCCN1CCN(Cc2ccccc2)CC1
  9%[15.4 µM]	7%	12	x	1.2	1.0
> Cc1sc2nc(CN3CCN(c4ccc(O)cc4)CC3)[nH]c(=O)c2c1C
  -4%	-4%	33	-1.0%	-0.6	6.4
> COc1ccc(CCNC(=O)C(=O)NCC2OCCN2S(=O)(=O)c2ccc(OC)c(C)c2)cc1 (stereo unspecified)
  u	-23%	-2	1.0%	-0.3	4.0
> COc1ccc(OC)c(-c2csc(NC(=O)Cc3ccc(F)cc3)n2)c1
  25%	-21%	4	x	2.5	x
> Cc1c(C(=O)Nc2ccc(F)c(F)c2)oc2ccc(S(=O)(=O)N3CCCCC3)cc12
  6%	0%	20&24	u	-0.1&1.1	5.9
> CC(=O)c1ccc(NC(=O)COc2ccccc2-c2nc(-c3cccc(C)c3)no2)cc1
  x	x	6	-1.4%	-0.4	x

(next part)
Values in the order: gsp agonist	gsp antagonist	TRPML1 blocker	ClpP mod	TRPML1 agonist	Menin MLL FP FL
> OC(CCCCN1CCCCC1)c1ccccc1 (stereo unspecified)
  27%	7%	-15	-2.1%	0.9	-1.8
> CC(C)(C)c1ccc(-c2n[nH]c(=S)n2C2CCCC2)cc1
  -25%	u	37	-19%	2.1	2.5
> O=C1CCCC/C=C\C[C@H](CC(=O)N(CCO)Cc2ccccc2)C(=O)N[C@@H](Cc2ccccc2)CO1
  x	-16%	-1	0.5%	-0.9	x
> O=C(c1ccc(Cl)c(Cl)c1)N1CCC(=O)N(C(CO)Cc2ccccc2)CC1 (stereo unspecified)
  5%	9%	22	0.8%	3.8	x
> c1ccc(Nc2c(-c3ccccc3)nc3ncccn23)cc1
  x	x	-13	1.6%	-0.6	x
> Cn1c(N)c(C(=O)/C=C/c2ccccc2)c(=O)[nH]c1=O
  5%	-8%	-16	x	0.6	0.9
> Cc1ccc(S(=O)(=O)N2CCCC(C(=O)N(Cc3cccs3)C3CC3)C2)cc1 (stereo unspecified)
  5%	u	55	0.8%	0.1	4.9
> Clc1nc(CN2CCOCC2)nc2sc3c(c12)CCC3
  -59%	-14%	36	-4.4%	1.2	-5.7
> O=C(Nc1ccc(Cl)cc1)OCCn1nnnc1C(c1ccccc1Cl)N1CCOCC1 (stereo unspecified)
  -2%	-23%	-8	1.2%	1.2	4.5
> CCOC(=O)C1CCCN(c2c(C(=O)c3ccccc3)cnc3ccccc23)C1 (stereo unspecified)
  2%	-23%	-4	-2.1%	0.8	0.4

Screening data as filed in PubChem BioAssay.
